D2 agonist: Beta-Arrestin HTS for Positive Allosteric Modulators of the Human D2 Dopamine Receptor: Agonists; D(2) dopamine receptor (Homo sapiens), P14416; DiscoveRx PathHunter D2 beta-arrestin, luminescence, 90 min; 100% = 57 uM dopamine signal; activation, % (concentration not given with the values); hit rate 0.084% among 360,000; in the data active = activation above about 40%; inconclusive = about 15% to 40%; inactive = below about 15%; further: compound concentration not given in the record; the text of the record calls up to 30% inactive
Target sequence (P14416 whole entry, looked up): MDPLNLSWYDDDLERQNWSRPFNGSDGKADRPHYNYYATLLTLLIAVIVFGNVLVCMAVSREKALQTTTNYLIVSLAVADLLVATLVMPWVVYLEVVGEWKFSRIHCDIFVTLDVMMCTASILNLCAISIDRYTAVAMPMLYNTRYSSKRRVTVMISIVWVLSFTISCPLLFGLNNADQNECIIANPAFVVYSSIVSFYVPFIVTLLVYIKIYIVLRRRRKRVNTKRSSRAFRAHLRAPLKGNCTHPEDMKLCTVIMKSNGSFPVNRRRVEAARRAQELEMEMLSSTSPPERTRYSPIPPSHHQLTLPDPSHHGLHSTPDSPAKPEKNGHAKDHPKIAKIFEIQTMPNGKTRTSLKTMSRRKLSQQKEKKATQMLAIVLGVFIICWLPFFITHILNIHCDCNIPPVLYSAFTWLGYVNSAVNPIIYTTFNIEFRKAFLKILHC
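DiscoveRx PathHunter D2 beta-arrestin cells (2,100/well) attached overnight, then compound-stimulated 90 min at 37 C in HBSS/10 mM HEPES/0.1% Tween-20 buffer; beta-galactosidase complementation read by luminescence after 1 h at ambient temperature. Dopamine 57 uM final (EC100) as control.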
gsp ag: qHTS for Agonist of gsp, the Etiologic Mutation Responsible for Fibrous Dysplasia/McCune-Albright Syndrome: qHTS | Potency, µM (titrated, usually from 76.9 µM), inactives show at the top dose activation (cAMP increase), usual class: activators | hit rate 0.13% among 340,000 | gsp mutant cells, cAMP HTRF, 30 min; control for the full effect not named in the record; active = well fitted activation curve with a large enough effect; inconclusive = small, poorly fitted or top-dose-only effect, or another doubt; inactive = no such curve, though single readings can be large or run the other way; cell line not stated here;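 further: phosphodiesterase inhibitor Ro 20-1724 added with compounds to block cAMP breakdown; potency means the concentration at half of the fitted maximal effect; nearly all actives have a fitted effect of over 60% in size; about a fifth of the inactives were tested at one dose only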
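Cells stably selected in G418 were plated at 2000/well, grown 16-24 hr, then given compounds in DMSO with the PDE inhibitor […] (300 uM solution added) for 30 min at 37C; cAMP was read by HTRF.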
Six1-Eya2 inh: qHTS Assay for Inhibitors of the Six1/Eya2 Interaction | Homeobox protein SIX1 (Homo sapiens) + Protein phosphatase EYA2 (Homo sapiens), … | AlphaScreen GST-Six1/His-Eya2 binding, biochemical; hits give low values; control for the full effect not named in the record | activity change, % (no concentration beside the values) | hit rate 0.56% among 360,000; in the data active = activity change below about -65%; inconclusive = about -30% to -65%; inactive = above about -30%; further: on the % scale 0 is the no-effect control and ±100 the full control effect; compound concentration not given in the record
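Compounds are tested against tagged Six1 and Eya2 proteins bridged by glutathione donor and nickel acceptor beads; after a one-hour incubation at 37 °C without light, AlphaScreen emission is recorded.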
D2 potentiator: Beta-Arrestin HTS for Positive Allosteric Modulators of the Human D2 Dopamine Receptor: Potentiators; DiscoveRx D2 beta-arrestin cells, luminescence, 90 min; 100% = 57 uM dopamine signal; potentiation, % (test concentration not listed); hit rate 0.23% among 360,000; AID 624464, 2012; active = potentiation of 50% or more; inconclusive = 30% to 50%; inactive = 30% or less;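 further: compound concentration not given in the record; tested on top of an EC20 dose of dopamine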
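D2 cells co-treated with compound plus 50 nM dopamine (EC20) for 90 min at 37 deg C to detect potentiation. Beta-arrestin recruitment was read as enzyme-fragment luminescence after 1 h at ambient temperature. Full response was set by 57 uM dopamine.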
gsp antagonist: qHTS for Antagonists of gsp, the Etiologic Mutation Responsible for Fibrous Dysplasia/McCune-Albright Syndrome: qHTS; gsp-mutant cells, cAMP HTRF, 30 min; control for the full effect not named in the record; Potency, µM (highest dose often 76.9 µM), inactives show at the top dose activity change, negative = inhibition, most hits filed as inhibitors; hit rate 0.4% among 340,000; AID 624288, 2012; active = falling curve of any shape with a large fitted effect; inconclusive = falling curve, mostly with a smaller effect; inactive = flat or rising curve; cell line not stated here;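 further: intracellular cAMP measured with PDE inhibitor Ro 20-1724 present during compound exposure; potency means the concentration at half of the fitted maximal effect; on the % scale 0 is the no-effect control and ±100 the full control effect; nearly all actives have a fitted effect of over 65% in size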
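G418-selected cells were plated in DMEM/10% FBS for 16-24 h at 37C, then treated with compounds plus the PDE inhibitor […] (300 uM solution added) for 30 min at 37C. Intracellular cAMP was measured by HTRF after 30 min lysis at room temperature.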
CtBP-E1A blk: qHTS Assay for Inhibitors of the CtBP/E1A Interaction | CtBP / adenovirus E1A interaction (AlphaScreen) | hit rate 0.49% among 340,000 | activity change, % (no concentration beside the values) | AlphaScreen GST-E1A/His-CtBP binding, 1536-well; hits give low values; control for the full effect not named in the record; in the data active means activity change below about -65%; inconclusive means about -30% to -65%; inactive means above about -30%; further: on the % scale 0 is the no-effect control and ±100 the full control effect; compound concentration not given in the record
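Homogeneous bead-based format: GST-tagged E1A captured on glutathione donor beads, His-tagged CtBP on nickel acceptor beads; compounds precede bead addition by 2 h at 37 °C.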
Numbers without * were called inactive; u = inconclusive; x = no result given; [ ] = another dose, or the depositor's remark.

no. | D2 agonist | gsp ag | Six1-Eya2 inh | D2 potentiator | gsp antagonist | CtBP-E1A blk | smiles
1 | -3.4 | -5% | -1 | -9 | 14% | 13 | CCc1cccc(CC)c1NC(=O)c1cccc(S(=O)(=O)N2CCN(C)CC2)c1
2 | -1.7 | 6% | 11 | -10 | -2% | 10 | CC1Cc2ccccc2N1C(=O)Cc1cccs1 (configuration not stated)
3 | -5.1 | -1% | 4 | -2 | 7% | 6 | Cc1cccc(NS(=O)(=O)c2cn(C)c(=O)n(C)c2=O)c1C
4 | -4.8 | -2% | 5 | -13 | 6% | 20 | CN(C)S(=O)(=O)c1cccc(NC(=O)CCNC(=O)c2ccccc2Cl)c1
5 | -2.5 | -2%[15.4 µM] | 6 | 0 | 14% | 3 | O=C(CSc1nnc2ccccn12)NNC(=O)c1ccc(F)cc1
6 | -6.2 | x | -1 | -7 | 0% | 8 | OCC(O)[C@@H](O[C@H]1O[C@H](CO)[C@@H](O)[C@H](O)[C@H]1O)[C@H](O)[C@@H](O)CO (some centres not stated)
7 | -2.4 | -34%[15.4 µM] | 14 | -4 | -5% | 12 | Cc1nn(C2CCS(=O)(=O)C2)c(Cl)c1/C=C/C(=O)OCC(=O)N(C)C (configuration not stated)
8 | 3.9 | -4% | 3 | -7 | -6% | 9 | CS(=O)(=O)c1nc(S(=O)(=O)c2ccc(Cl)cc2)c(N2CCOCC2)s1
9 | -3.7 | -12%[15.4 µM] | 9 | -20 | 6% | -4 | O=C1CCc2cc(S(=O)(=O)N3CCN(c4ccc(F)cc4)CC3)cc3c2N1CC3
10 | -8.7 | -41%[inhibitor] | -3 | -4 | -3% | x | O=C1NC(=S)N/C1=C/c1cc2c(cc1[N+](=O)[O-])OCO2
11 | -0.2 | -14% | -5 | 1 | -25% | -27 | Cn1c(SCC(=O)N2CCN(c3ccccc3)CC2)nnc1-c1c[nH]c2ccccc12
12 | -2.0 | 8% | -2 | -15 | 6% | -12 | Cc1ccc(N2C(=O)N(CC(=O)Nc3ccc([N+](=O)[O-])cc3)C(=O)C2C)cc1 (configuration not stated)
13 | -4.7 | 10%[15.4 µM] | -4 | -10 | 3% | 0 | CC(C)c1cc(CN2CCN(C3CCCC3)C(CCO)C2)[nH]n1 (configuration not stated)
14 | -6.3 | -5% | 22 | 1 | -2% | x | On1c(-c2ccccc2)nc2ncccc21
15 | -0.3 | 16% | 2 | -5 | -5% | 11 | CCOC(=O)c1cc(OC(=O)c2ccccc2Br)n(-c2ccccc2)n1
16 | -0.6 | -2%[15.4 µM] | -11 | -1 | -11% | -8 | Cc1ccc(-c2cc(C(=O)Nc3ccccc3C(N)=O)c3ccccc3n2)o1
17 | 2.1 | -18% | -2 | -7 | 4% | x | CC(=O)c1cc(-c2ccc(F)cc2)n(CCC(=O)NC(C)(C)C)c1C
18 | 0.3 | 18% | 0 | 11 | -9% | 1 | CC(C)Nc1ncnc2c1cnn2-c1ccc(Cl)cc1
19 | 0.1 | 2% | -3 | 4 | -13% | 3 | Cc1csc(N2CCc3ccccc32)n1
20 | -4.7 | -20% | 2 | -9 | -42% | 18 | Cc1ccc(C)c(N2CCN(S(=O)(=O)c3c(C)[nH]c(C)c3C(=O)N3CCCCC3)CC2)c1
21 | 3.9 | -11% | 12 | -19 | 8% | x | COc1cccc(C(=O)NCc2ccco2)c1
22 | -4.9 | 2% | -20 | -19 | x | -7 | O=C(NCCNc1ccc([N+](=O)[O-])cc1)c1ccccc1Cl
23 | -2.4 | 3% | 2 | 4 | -3% | 1 | COc1ccc(S(=O)(=O)CCc2nnc(NC(=O)c3cccs3)s2)cc1
24 | -0.8 | -49%[inhibitor] | -2 | 2 | 2% | -3 | Cc1ccc(CN(c2ccc(C(=O)Nc3cccnc3)cc2)S(C)(=O)=O)cc1
25 | -6.9 | -2% | 8 | -10 | 2% | 4 | O=C(COc1ccccc1)N1CCN=C1SCc1cccc(F)c1
26 | -1.0 | -2% | 5 | 5 | 7% | 3 | CC(C)Oc1cccc(C(=O)N2CCCC2)c1
27 | -1.9 | -29% | 3 | -2 | -7% | 4 | O=C(c1cccc(S(=O)(=O)N2CCCC2)c1)N1CCN(Cc2ccccc2)CC1
28 | -1.0 | -38% | -4 | 4 | 2% | -1 | CCN1CCN(c2ccc(S(=O)(=O)N3CCCCC3)cc2NC(=O)c2ccc(F)cc2)CC1
29 | -2.9 | -9% | -2 | -5 | 3% | -4 | Cc1ccc(CC(=O)Nc2ccc(S(=O)(=O)N3CCOCC3)cc2)cc1
30 | 1.6 | 0% | -6 | 19 | u | -17 | O=C(Nc1ccc(-c2nc3ccccc3o2)cc1)c1cc(-n2cnnc2)ccc1Cl
31 | 9.1 | 6% | 7 | -1 | -3% | 2 | COc1ccc(C2Nc3ccccc3C(=O)N2NS(C)(=O)=O)cc1OC (configuration not stated)
32 | 1.3 | -7% | 2 | -1 | 11% | 1 | CCn1c(=O)cc(OCC(=O)Nc2cccc(C)n2)c2ccccc21
33 | -0.5 | 17% | 0 | -15 | -8% | -10 | CC(=O)NC(Cc1cccc(F)c1)C(=O)NC1CCN(c2ncccc2[N+](=O)[O-])CC1 (configuration not stated)
34 | -3.7 | x | 5 | -8 | x | 3 | COc1ccc(Cc2c(-c3cccc(Cl)c3)nc3ccc(Br)cn23)c(C)c1
35 | -2.5 | 20%[15.4 µM] | -14 | -6 | x | 0 | Cc1cc(N/N=C/c2ccc([N+](=O)[O-])o2)nc2ccccc12
36 | -2.5 | -1% | 3 | 2 | -11% | 9 | O=C(C1CC(c2cccc(Br)c2)=NO1)N1CCc2ccccc2C1 (configuration not stated)
37 | 2.9 | u | -13 | -3 | -14% | -15 | COc1cc(/C=N/NC(=O)c2ccc(CSc3nc4ccccc4[nH]3)cc2)cc(OC)c1OC
38 | 3.2 | -62%[inhibitor] | -2 | -8 | -21% | 7 | Cc1ccc(COCC(CC(C)C)N2CCN(C(=O)c3cccc(C(F)(F)F)c3)CCC2=O)cc1 (configuration not stated)
39 | -2.7 | u | -26 | -25 | 14% | 1 | Cc1cccn2c(=O)c(/C=C(\C#N)C(N)=O)c(N3CCN(Cc4ccc5c(c4)OCO5)CC3)nc12
40 | -2.1 | 9% | -1 | -6 | -9% | 3 | CCN(CC)C(=O)CSc1ncnc2c1cnn2Cc1ccccc1

Arranged by formula weight (smallest number first): 3 of the compounds above
no. | D2 agonist | gsp ag | Six1-Eya2 inh | D2 potentiator | gsp antagonist | CtBP-E1A blk | smiles
32 | 1.3 | -7% | 2 | -1 | 11% | 1 | CCn1c(=O)cc(OCC(=O)Nc2cccc(C)n2)c2ccccc21
31 | 9.1 | 6% | 7 | -1 | -3% | 2 | COc1ccc(C2Nc3ccccc3C(=O)N2NS(C)(=O)=O)cc1OC (configuration not stated)
24 | -0.8 | -49%[inhibitor] | -2 | 2 | 2% | -3 | Cc1ccc(CN(c2ccc(C(=O)Nc3cccnc3)cc2)S(C)(=O)=O)cc1

(cont.)
no. | D2 agonist | gsp ag | Six1-Eya2 inh | D2 potentiator | gsp antagonist | CtBP-E1A blk | smiles
41 | -4.1 | 21% | 9 | -2 | 11% | -2 | Cc1ccc(N2C(=O)CCC2(C#N)c2ccccc2)cc1 (configuration not stated)
42 | -0.9 | 8%[15.4 µM] | 6 | 2 | 4% | 0 | CCCOc1ccc(OCCn2nc(C(=O)O)c3ccccc3c2=O)cc1
43 | -4.2 | -14% | 7 | -18 | 6% | 18 | O=C(NCc1cccc(C(F)(F)F)c1)c1cccc2c1C(=O)c1ccc(N3CCC(Cc4ccccc4)CC3)cc1S2(=O)=O
44 | -1.0 | -2%[15.4 µM] | -10 | -5 | -2% | -2 | O=C(CSc1n[nH]c(=O)n1Cc1ccco1)Nc1ccccc1Cl
45 | -0.8 | 2% | 13 | -9 | -25% | x | CCOP(=O)(OCC)C(NC(=O)Nc1cccc(Cl)c1)C(N)=O (configuration not stated)
46 | -6.1 | -27% | -7 | 5 | -4% | -6 | O=C(Nc1ccc(F)cc1F)c1ccc2nc(N3CCOCC3)sc2c1
47 | -0.3 | 0%[15.4 µM] | -3 | -7 | -1% | -1 | CS(=O)(=O)N(CC(=O)NCCSCc1cccc(Cl)c1)c1ccc(F)cc1
48 | -1.4 | -38% | 0 | -18 | 6% | 7 | CC1CCC(C(C)C)C(OC(=O)C2=C3c4ccccc4S(=O)(=O)N3CC2)C1 (configuration not stated)
49 | -1.5 | 8% | -1 | -2 | 3% | -3 | CC(=O)NCCC(=O)N1CCCC(N2CCN(c3cccc(Cl)c3)CC2)C1 (configuration not stated)
50 | -0.9 | 2% | -8 | 11 | -1% | -1 | Cc1c(/C=N/n2cnnc2)c2ccccc2n1CCOc1ccccc1
51 | 4.3 | 14% | 3 | -3 | 10% | 3 | COc1cccc(C(=O)O/N=C(\N)CS(=O)(=O)c2ccccc2)c1
52 | -2.9 | -16% | 2 | -12 | 16% | 3 | Cc1cc(C)c(NC(=O)CCc2c(C)noc2C)c(C)c1
53 | -1.3 | 6% | 2 | -15 | 8% | 3 | Cc1cccc(NC(=O)C2CCCN2C(=O)Oc2ccccc2)c1 (configuration not stated)
54 | -1.7 | 16% | -6 | -17 | x | -3 | Cc1ccc2nc(SCC(=O)N3N=C(c4cccs4)CC3c3ccc(F)cc3)nc(=O)n2c1 (configuration not stated)
55 | 7.2 | u | 10 | 8 | 9% | -4 | O=C(CCCC(=O)c1ccccc1)NCCc1ccccc1
56 | -3.1 | 2% | -4 | -38 | -21% | -4 | Cc1ccc2nc(-c3ccccc3)cc(C(=O)NCC(c3ccco3)N(C)C)c2c1 (configuration not stated)
57 | -3.0 | 1%[15.4 µM] | 7 | -8 | 11% | -3 | Cc1csc2c(=O)sc(NC(=O)c3ccc(F)cc3)nc12
58 | 0.7 | -24% | -3 | -5 | -7% | -6 | O=c1cc(CN2CCN(S(=O)(=O)c3ccc4c(c3)OCCO4)CC2)c2ccc(O)cc2o1
59 | 4.0 | 0% | 13 | -7 | 15% | 3 | CC(=O)Nc1ccc(S(=O)(=O)N=S(C)(C)=O)cc1
60 | 3.2 | -8% | 8 | -17 | 4% | 0 | COc1ccc(C)cc1S(=O)(=O)N(CC(N)=O)Cc1ccccc1
61 | -1.3 | -6% | 6 | 0 | -12% | -2 | COc1cccc(C(=O)OCC(=O)c2c[nH]c3ccccc23)c1O

Some entries already given, limited to D2 agonist and gsp ag.
item	smiles	D2 agonist	gsp ag
14	On1c(-c2ccccc2)nc2ncccc21	-6.3	-5%
15	CCOC(=O)c1cc(OC(=O)c2ccccc2Br)n(-c2ccccc2)n1	-0.3	16%
16	Cc1ccc(-c2cc(C(=O)Nc3ccccc3C(N)=O)c3ccccc3n2)o1	-0.6	-2%[15.4 µM]

Screening results deposited in PubChem BioAssay by National Center for Advancing Translational Sciences (NCATS).
